From PubChem
MARV entry inh: inhibitors of Marburg virus binding or cell entry; Marburg virus pseudotyped entry inhibition, cell reporter; control for the full effect not named in the record; about a third of the inactives were read at about 46 µM; hit rate 1.8% among 300,000; Potency, µM (doses to about 37.8 µM), without a hit: at the top dose activity change, negative = inhibition, usual class: inhibitors; active = well fitted inhibition curve with a large enough effect; inconclusive = small, poorly fitted or top-dose-only effect, or effect the other way; inactive = flat fitted curve, though single readings scatter; tested in HEK293 cells; about a fifth of its hits are not listed in these tables; also: % is scaled to controls: 0 for no effect and ±100 for the full control effect; luciferase read-out
NS1 inh: blocks influenza NS1 protein function; S. cerevisiae slowed by influenza A NS1, growth recovery by OD600; Potency, µM (titrated, usually from 46.1 µM), for the others: at the highest dose activity, positive = more growth; hit rate 0.4% among 270,000; active means well fitted rising curve with a large enough effect; inconclusive means small, poorly fitted or top-dose-only effect; inactive means no such curve, though single readings can be large or run the other way; also: nearly all actives have a fitted effect of over 50% in size
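S. cerevisiae expressing influenza A NS1, grown in glucose, washed, then diluted 1:100 into pH 6.0 -URA galactose medium with 23 nl compound. Growth recovery read as OD600; NS1-free strain serves as control.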
Cruzain inh noDet: blocks cruzain activity in detergent-free assay; purified cruzain, Z-FR-AMC fluorescence, no detergent; Potency, µM, inactives show max response, negative = inhibition, usual class: inhibitors; hit rate 2.3% among 200,000; AID 1476;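 also: plate controls were enzyme without inhibitor for no effect and buffer without enzyme for full effect; nearly all actives have a fitted effect of over 40% in size; top concentration of the series not given in the record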
Target sequence (P25779 123-467 limits assumed): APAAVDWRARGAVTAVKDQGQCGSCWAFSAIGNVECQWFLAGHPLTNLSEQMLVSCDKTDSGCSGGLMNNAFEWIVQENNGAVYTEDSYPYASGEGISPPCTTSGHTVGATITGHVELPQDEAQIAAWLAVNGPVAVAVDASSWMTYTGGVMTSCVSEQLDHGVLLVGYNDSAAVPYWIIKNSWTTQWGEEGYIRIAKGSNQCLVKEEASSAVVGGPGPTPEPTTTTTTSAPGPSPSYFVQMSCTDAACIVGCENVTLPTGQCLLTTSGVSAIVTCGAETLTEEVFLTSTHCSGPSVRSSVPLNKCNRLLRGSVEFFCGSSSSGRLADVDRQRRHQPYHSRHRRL
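Purified cruzain at 1.5 nM, pre-incubated 15 min with compound at room temperature in 100 mM sodium acetate pH 5.5, 5 mM DTT, 0.00005% Triton X-100. Reaction started with 2 uM Z-FR-AMC; AMC fluorescence increase over 60 s gives rate.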
RE007 growth inh: less growth of the S. pombe RE007 Vpr strain; hit rate 0.21% among 360,000; S. pombe RE007 Vpr strain, BacTiter-Glo ATP luminescence, 24 h; control for the full effect not named in the record; Potency, µM (series often up to 92.2 µM), for the others: top-dose activity change, negative = less growth; active = well fitted falling curve with a large enough effect; inconclusive = small, poorly fitted or top-dose-only effect; inactive = no such curve, though single readings can be large or run the other way;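 also: % is scaled to controls: 0 for no effect and ±100 for the full control effect; nearly all actives have a fitted effect of over 50% in size; the assay follows cell death caused by Vpr and the record does not say whether a fall means rescue or toxicity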
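Fission yeast RE007 carrying one integrated HIV-1 vpr copy, seeded at OD 0.01 in PMG+AL medium with 23 nL pinned compound. Grown 24 h at 30 degrees; viability read by BacTiter-Glo luminescence after 5 min.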
SARS PLpro yeast: inhibitors of SARS-CoV papain-like protease in yeast. S. cerevisiae expressing SARS-CoV PLpro, growth rescue; control for the full effect not named in the record. Potency, µM (doses to about 32.9 µM), for the others: at the highest dose activity, positive = growth rescue. hit rate 0.19% among 330,000; active means well fitted rising curve with a large enough effect; inconclusive means small, poorly fitted or top-dose-only effect; inactive means no such curve, though single readings can be large or run the other way; also: 0% is about no effect; nearly all actives have a fitted effect of over 55% in size; growth read by luminescence after 48 h
LASV entry inh: blocks Lassa virus binding to or entry into cells | hit rate 1.2% among 300,000 | Lassa virus pseudotype entry inhibition, cell reporter; control for the full effect not named in the record | Potency, µM (highest dose often 37.9 µM), without a hit: at the highest dose activity change, negative = inhibition, usual class: inhibitors; active means well fitted inhibition curve with a large enough effect; inconclusive means small, poorly fitted or top-dose-only effect, or effect the other way; inactive means flat fitted curve, though single readings scatter; tested in HEK293 cells; also: % is scaled to controls: 0 for no effect and ±100 for the full control effect; nearly all actives have a fitted effect of over 50% in size; luciferase read-out
StopGo reporter: FMDV 2A StopGo reporter, luciferase signal. human cells with a luciferase reporter of 2A StopGo recoding; control for the full effect not named in the record. Potency, µM (titrated, usually from 57.9 µM), inactives show at the highest dose signal change, negative = less light. hit rate 1.2% among 410,000. AID 1159524; active = well fitted falling curve with a large enough effect; inconclusive = small, poorly fitted or top-dose-only effect; inactive = no such curve, though single readings can be large or run the other way; tested in HEK293T cells; also: % is scaled to controls: 0 for no effect and ±100 for the full control effect; nearly all actives have a fitted effect of over 45% in size; luciferase light after 4 h
Cruzain Triton: cruzain (T. cruzi) inhibition with detergent | P25779 | purified cruzain, Z-FR-AMC fluorescence, 0.01% Triton | Potency, µM, for inactives: max response, negative = inhibition, most hits filed as inhibitors | hit rate 0.43% among 200,000;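 also: plate controls were neutral wells for no effect and buffer without enzyme for full effect; nearly all actives have a fitted effect of over 40% in size; top concentration of the series not given in the record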
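In this qHTS format, compounds are incubated with 1.5 nM cruzain for 15 min at room temperature before 2 uM Z-FR-AMC is added. Release of AMC is followed at 360/450 nm, and progress is taken as the 60 s fluorescence difference.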
* hit, by the source's call; ? = inconclusive; . = not tested or not shown; & = joins results of further samples; [ ] = dose if it differs, or a comment. Unless noted, calls follow the shape of the dose curve; as a rule, active = well fitted curve in the direction sought with a large enough effect; inconclusive = small, poorly fitted or top-dose-only effect, or another doubt; inactive = no such curve, though single readings can be large; an effect the other way counts as inactive or inconclusive. Potency is read from the fitted curve at half-maximal effect. Rows are unselected. About 4.7% of those tested had a hit in this group.

SMILES	MARV entry inh	NS1 inh	Cruzain inh noDet	RE007 growth inh	SARS PLpro yeast	LASV entry inh	StopGo reporter	Cruzain Triton
CN(C)c1cccc(C(=O)Nc2ccc(N3CCOCC3)cc2)c1	?	-1%	1%	-6%	-1%	-5%	-9%	4.4%
NN/C(=C\[N+](=O)[O-])Nc1ccc(Cl)cc1	-12%[46.1 µM]	-3%	.	-29%	-2%	-20%[46.1 µM]	14%	.
CC(=O)c1cccc(NC(=S)N2CCCC2)c1	.	12%	.	6%	30%	.	-3%	.
Cc1cccc(C(=O)NC(NCCc2ccccc2)C(Cl)(Cl)Cl)c1 (centres undefined)	?	?	-2%	1%	1%	?	?	0.7%
CCOCc1nnc(NC(=O)C2c3ccccc3Oc3ccccc32)s1	?	9%	.	-10%	0%	2%	-20%	.
CCc1ccc(CN2CCCC(C(=O)Nc3ccccc3-c3ccc(OC)cc3)C2)o1 (centres undefined)	.	-9%	.	9%	-2%	.	-17%	.
O=c1[nH]c(C(Cl)(Cl)Cl)nc2ccc3ccccc3c12	?	-50%	.	-19%	-4%	-24%[46.1 µM]	4%	.
Cc1ccc(S(=O)(=O)N2CCCC2CNC(=O)C(=O)Nc2ccccc2)cc1 (centres undefined)	?	.	.	4%	3%	?	-9%	.
Cc1cc(C(F)(F)F)c2c(n1)sc1c(O)cc(=O)[nH]c12	30%	29%	-8%	1%	13%	1%	8%	-1.3%
O=S(=O)(c1ccc(Br)cc1)N1CCN=C1SCc1cccc(F)c1	.	-5%	.	-14%	0%	.	-25%	.
O=C(Nc1ccc(C2CC2(Cl)Cl)cc1)c1ccccc1Br (centres undefined)	?	-57%	-8%	-17%	-81%	?	10%	-5.7%
CC1(C)OC2OC3C(CN)OC(c4ccccc4)OC3C2O1 (centres undefined)	?	.	.	-19%	.	4%	-28%	.
O=C(Cn1cc(C(F)(F)F)ccc1=O)N/N=C/c1ccc(Cl)c(Cl)c1	?	8%	8%	4%	10%	1%	-11%	-9.8%
O=C(Cn1nc(Cc2cccnc2)c2ccccc2c1=O)N1CCN(c2ccccc2F)CC1	9%[46.1 µM]	.	-3%	.	.	0%[46.1 µM]	-27%	-1.5%
COc1ccc(OC)c(CN2CCN(C(=O)c3cccc(S(=O)(=O)Nc4ccc(C)cc4)c3)CC2)c1	?	.	.	-6%	-1%	-4%[46.1 µM]	-25%	.
O=C(Cn1cnc2c(oc3ccccc32)c1=O)NCC1CCCO1 (centres undefined)	6%	1%	1%	-13%	-3%	3%	13%	-1.5%
Cc1ccc(-n2c(Cl)c(Cl)nc(Cl)c2=O)cc1	?	-61%	18%	10µM*	-89%	7.3µM*	7.1µM*	-6.6%
COC(=O)[C@H](C)[C@@H]1C[C@@]1(C)[C@@H](NC(=O)OCc1ccccc1)c1ccccc1	0%	-46%	-6%&-4%	0%	-13%	?	-21%	-1.4%&-9.4%
O=C(Cc1coc2ccc3ccccc3c12)N1CCc2ccccc21	-2%	12%	13µM*	-12%[3.69 µM]	-2%	-2%	-5%	2.8%
Cc1nc2nc(C)c(CCC(=O)NCc3ccccc3)c(C)n2n1	1%[46.1 µM]	.	-3%	.	.	-17%[46.1 µM]	-7%	4.4%
Cc1cccc(OCCCCCNCCO)c1	-11%	-3%	-4%	-3%	-7%	-4%	.	-1.0%
Fc1ccc2c(c1)Sc1ccc(Cl)cc1CC2N1CCN(CCC2OCCO2)CC1 (centres undefined)	?	.	.	-10%	.	-11%[46.1 µM]	-28%	.
Cc1ccc2c(=O)cc(C(=O)NC3CCS(=O)(=O)C3)oc2c1C (centres undefined)	.	14%	.	0%	3%	.	0%	.
CCCc1ncc(C(O)(c2ccccc2)c2ccc(C)cc2)n1C (centres undefined)	?	-13%	-7%	-7%	-2%	?	?	-5.2%
Cc1ccc(C(=O)NC(C)c2ccccc2)cc1Br (centres undefined)	1%	18%	-6%	8%	-34%	12µM*	-16%	-3.6%

Other compounds.
SMILES	MARV entry inh	NS1 inh	Cruzain inh noDet	RE007 growth inh	SARS PLpro yeast	LASV entry inh	StopGo reporter	Cruzain Triton
O=C(Nc1nnc(N2CCCCCC2)s1)c1cc(-c2ccc(Br)cc2)on1	0%&0%	-27%	?	-13%	27%	0%	-26%	-2.5%
COc1cccc(NC(=O)c2cccc(OC)c2OC)c1	-27%	-6%	-11%	-24%	-8%	?	56%[activator]	-0.7%
Cc1ccc(N2OC3C(=O)NC(=O)C3C2c2ccco2)cc1 (centres undefined)	-25%	6%	-9%	2%	19%	-7%	-17%	-0.8%
Cc1ccc(CNC(=O)c2sc3ccc(S(=O)(=O)N4CCCCC4)cc3c2N)cc1	0%	21%	?	.	-8%	.	.	-6.7%
CCn1nc(NS(=O)(=O)c2ccccc2)c2cc3ccc(C)cc3nc21	.	15%	.	-2%	2%	.	7%	.
Cc1ncccc1C(=O)N1CCCC(C(=O)c2ccc3c4c(cccc24)CC3)C1 (centres undefined)	22%[46.1 µM]	-2%	.	5%	1%	-12%	?	.
CC(=O)c1ccccc1NC(=O)COC(=O)Cc1cccc(C(F)(F)F)c1	?	.	.	10%	1%	11%	-15%	.
COC(=O)c1c(C)[nH]c(C(=O)CSc2nnnn2-c2ccccc2)c1C	1%	1%	-22%	18%	6%	6%	-6%	1.6%
COc1ccc(OC)c(C(=O)C2COC(=O)C2)c1 (centres undefined)	-7%	0%	-12%	7%	1%	17%	?	0.5%
Cc1cccc(-c2nnc(SCC(=O)N3c4ccccc4CCc4ccccc43)n2C)c1	?	-4%	-11%	30%	-3%	-27%	-6%	-3.6%
CCOc1ccc(CNC(=O)CCS(=O)(=O)c2cc3c4c(c2)CCN4C(=O)CC3)cc1OC	.	.	4%	.	.	26%[46.1 µM]	16%	-4.4%
Cc1cc(=O)oc2c(C)c(OCC(=O)N3CCN(c4cccc(Cl)c4)CC3)ccc12	.	9%	.	-6%	-4%	.	?	.
COc1cccc(CC(=O)Nc2c(C(=O)N3CCN(c4ccccc4)CC3)oc3ccccc23)c1	-10%[46.1 µM]	.	-8%	.	.	20%[46.1 µM]	48%[activator]	-3.2%
COc1ccc(NC(=O)CC2Oc3ccc(C)cc3NC2=O)cc1 (centres undefined)	.	-1%	-7%	4%	-2%	.	-18%	1.0%
CCCCN=c1sc(C(=O)OC)cc(=O)n1CCCC	-19%	-2%	23%	4%	-5%	17%	-1%	-0.6%
CN(C1CCCCC1)S(=O)(=O)c1ccc(NC(=O)Cn2nc(-c3ccc(F)cc3)ccc2=O)cc1	-1%	3%	-24%	-23%	-6%	-3%	-14%	-7.0%
O=C(CCc1ccccc1)N1CCCC(Nc2ccc(F)cc2)C1 (centres undefined)	.	1%	.	-6%	0%	.	-9%	.
COc1ccc2c(c1)Sc1ccccc1N2	-13%[46.1 µM]	.	.	?	-3%	12%	21%	.
CSC[C@@H]1NC(=S)N(c2ccc(C)cc2)C1=O	-25%	-23%	13µM*	4%	-24%	8%	11µM*	-0.5%
COC(=O)c1ccc(CSc2nnnn2C)o1	8%	5%	-2%	9%	2%	0%	6%	-1.0%
Cn1c(CCNC(=O)c2ccc(F)cc2)nc2ccccc21	1%	-9%	2.5µM*	-14%	-2%	0%	-1%	11µM*
COc1ccc(CCNC(=O)c2cccc(C(=O)NCCc3ccc(OC)cc3)n2)cc1	?	.	.	24%	.	?	-11%	.
Cc1ccc2ccccc2c1NC(=O)CNC1CCCCC1	?	-17%	-5%	27%	8%	-19%	-27%	2.1%
CCCC(=O)N1CC(=O)Nc2ccc(Cl)cc2C1c1ccc(F)cc1 (centres undefined)	16%[46.1 µM]	.	8%	.	.	1%[46.1 µM]	-1%	1.5%
CCOC(=O)N1CCN(C(=O)CSc2nc(=O)n3cc(C)ccc3n2)CC1	5%	.	.	0%	-8%	10%	-10%	.

In another format: 3 of the compounds above.
compound | MARV entry inh | NS1 inh | Cruzain inh noDet | RE007 growth inh | SARS PLpro yeast | LASV entry inh | StopGo reporter | Cruzain Triton
Cc1ccc2c(=O)cc(C(=O)NC3CCS(=O)(=O)C3)oc2c1C (centres undefined) | . | 14% | . | 0% | 3% | . | 0% | .
CCCc1ncc(C(O)(c2ccccc2)c2ccc(C)cc2)n1C (centres undefined) | ? | -13% | -7% | -7% | -2% | ? | ? | -5.2%
Cc1ccc(C(=O)NC(C)c2ccccc2)cc1Br (centres undefined) | 1% | 18% | -6% | 8% | -34% | 12µM* | -16% | -3.6%

More results.
SMILES	MARV entry inh	NS1 inh	Cruzain inh noDet	RE007 growth inh	SARS PLpro yeast	LASV entry inh	StopGo reporter	Cruzain Triton
Cc1ccc(NC(=S)NCCc2cnc[nH]2)cc1C	0%[46.1 µM]	2%	.	?	-1%	25%[46.1 µM]	4%	.
Fc1ccc(Nc2nc(-c3ccncc3)nc3ccccc23)cc1	?	7%	2%	9%	17%	?	-14%	-7.0%
COc1ccc(NC(=O)CCC(=O)Nc2nnc(CC(C)C)s2)cc1Cl	13%[46.1 µM]	2%	.	14%	1%	?	35%[activator]	.
CCOC(=O)C1CCN(C(=O)c2cccc(S(=O)(=O)N3c4ccccc4CC3C)c2)CC1 (centres undefined)	5%	.	.	-4%	1%	-5%	21%	.
O=C(OCC(=O)N1CCCC1)c1cnc(Cl)c(Cl)c1	-2%[46.1 µM]	.	.	-21%	3%	?	1%	.
COP(=O)(OC)C(NC(C)=O)C(Cl)(Cl)Cl (centres undefined)	?	.	.	0%	0%	17%	-12%	.
Cc1ccc2cc(CCNC(=O)c3ccc(S(=O)(=O)N4CCOCC4)cc3)c(=O)[nH]c2c1	13%	13%	.	-4%	?	-20%	-19%	.

2 of the compounds above, as labelled records:
SMILES: COc1ccc(NC(=O)CCC(=O)Nc2nnc(CC(C)C)s2)cc1Cl
  MARV entry inh: 13%[46.1 µM]	NS1 inh: 2%	Cruzain inh noDet: .	RE007 growth inh: 14%	SARS PLpro yeast: 1%	LASV entry inh: ?	StopGo reporter: 35%[activator]	Cruzain Triton: .

SMILES: Fc1ccc(Nc2nc(-c3ccncc3)nc3ccccc23)cc1
  MARV entry inh: ?	NS1 inh: 7%	Cruzain inh noDet: 2%	RE007 growth inh: 9%	SARS PLpro yeast: 17%	LASV entry inh: ?	StopGo reporter: -14%	Cruzain Triton: -7.0%
